GIRK2 activ – activators of human GIRK2 potassium channels; G protein-activated inward rectifier potassium channel 2 (Homo sapiens), P48051; HEK293-GIRK2 thallium flux, Thallos fluorescence; calls only for hits at 25 µM; 63,000 tested, 0.05% active; AID 1259325, 2017;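 active = among the strongest 0.2% of first-round signals and kept after retests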;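 also: first round at about 10 µM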
Target sequence (P48051 whole entry, looked up): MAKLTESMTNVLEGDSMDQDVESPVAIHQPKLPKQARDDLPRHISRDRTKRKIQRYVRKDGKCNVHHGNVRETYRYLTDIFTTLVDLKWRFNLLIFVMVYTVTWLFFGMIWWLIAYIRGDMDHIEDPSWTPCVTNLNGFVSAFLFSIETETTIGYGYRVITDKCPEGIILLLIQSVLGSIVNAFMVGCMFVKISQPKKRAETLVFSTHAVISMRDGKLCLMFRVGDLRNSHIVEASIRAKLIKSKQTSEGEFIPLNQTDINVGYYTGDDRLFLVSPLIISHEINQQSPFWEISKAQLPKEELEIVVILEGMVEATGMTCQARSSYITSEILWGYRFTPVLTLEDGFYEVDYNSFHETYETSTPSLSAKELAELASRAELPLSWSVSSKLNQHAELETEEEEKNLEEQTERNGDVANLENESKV
Calls only; i = inactive. A portion of the library; rates above refer to the full screens.

SMILES	GIRK2 activ
O=C(NCCC1CCCCN1S(=O)(=O)c1cccs1)c1ccc(Br)o1 (centres undefined)	i
Cc1ccc(/C=C/S(=O)(=O)N2CCC(Cn3ccnc3C(C)C)CC2)cc1	i
Cc1ccccc1C(=O)Nc1cnc(-n2ccnc2C)nc1	i
CCCn1cnc2c(-c3cccc(Cl)c3)csc2c1=O	i
Cn1nc(CNC(=O)/C=C/c2ccccc2)cc1-c1ccncc1	i
O=C(CSc1nnc(-c2ccccc2)o1)NCC1CCCO1 (centres undefined)	i
COc1ccc(OC)c(-c2cc(C(=O)NCC(O)Cc3ccccc3)n(C)n2)c1 (centres undefined)	i
COc1ccccc1N1CCN(CC(=O)Nc2ccc(-n3cnnn3)cc2)C1=O	i
Oc1[nH]c2ccccc2c1C=Nc1ccc(-n2cncn2)cc1	i
C=CCc1ccccc1OCC(O)CN1CCN(Cc2ccccc2)CC1 (centres undefined)	i
Cc1cccc(C)c1NC(=O)CSc1nc2c(sc3ncccc32)c(=O)n1Cc1ccccc1	i
CSc1ccccc1C(=O)NCC1CCN(C(C)C)CC1	i
COc1ccc(S(=O)(=O)Nc2ccc3c(c2)CCC(=O)N3)c(OC)c1	i
Cc1csc(NC(=O)Cn2nc(C)cc2C(=O)N2CCOCC2)n1	i
CC1CCN(c2nccnc2Oc2ccc(C(=O)NC3CCCC3)cc2)CC1	i
O=C(NCC(O)c1ccc2c(c1)CCO2)c1cc2ccccc2o1 (centres undefined)	i
CC(=O)NC1C(=O)N(Cc2ccccc2Cl)c2ccc(Cl)cc21 (centres undefined)	i
COc1ccc(F)cc1S(=O)(=O)N1CCC(c2nn(C)c(=O)n2-c2ccccc2)CC1	i
Cn1cc(-c2ccco2)nc1CCNS(=O)(=O)c1ccc2c(c1)OCCO2	i
Cc1cccc2sc(OC3CCN(C(=O)NCc4cccs4)CC3)nc12	i
Cc1occc1-c1nnc2sc(/C=C/c3ccc(C(C)C)cc3)nn12	i
COc1ccc(S(=O)(=O)N2CCc3nc(NC(C)=O)sc3C2)cc1C	i
CC1CCCN(CC(O)COc2ccc(-c3ccccc3)cc2)C1 (centres undefined)	i
O=C(NCc1n[nH]c(=O)c2ccccc12)c1cc(C(F)(F)F)cc(C(F)(F)F)c1	i
COC1(CNC(=O)Nc2ccc(C(F)(F)F)cc2)CCSC1 (centres undefined)	i
O=C(CCc1cccc(Oc2ccc(F)cc2)c1)NCc1cccs1	i
Cc1ncn(CC(=O)N2CCC(S(=O)(=O)Cc3ccco3)CC2)c(=O)c1C	i
CCS(=O)(=O)N1CCCc2cc(NS(=O)(=O)c3cn(C)cn3)ccc21	i
O=C(/C=C/c1cccc([N+](=O)[O-])c1)N(CCN1CCOCC1)c1nc2ccccc2s1	i
Cc1ccc2c(-c3ccnc(Nc4cccc(C(F)(F)F)c4)n3)c(-c3ccccc3)nn2n1	i
Cc1ncc(-c2nc(-c3ccccc3)cs2)c(=O)n1CC(=O)Nc1c(F)cccc1F	i
O=c1[nH]c2sc3c(c2c(=O)n1Cc1ccco1)CCCC3	i
CS(=O)(=O)c1cccc2sc(N3CCN(C(=O)c4c(F)cccc4F)CC3)nc12	i
Cc1ccc(C(=O)Nc2ccc(Nc3nc(C)cc(N4CCCCC4)n3)cc2)cc1	i
CSc1cccc(NC(=O)CN2CCc3[nH]c4c(C)c(Cl)ccc4c(=O)c3C2)c1	i
COc1ccc(C(=O)Nc2ccc3oc(=O)ccc3c2)cc1	i
O=C(Cc1ccccc1Cl)N1CCN(C(=O)C2CC2c2cccs2)CC1 (centres undefined)	i
O=C(C1COc2ccccc2O1)N1CCN(Cc2nc3ccccc3[nH]2)CC1 (centres undefined)	i
CCCCN(CC)C(=O)Cn1cc(-c2nc(-c3ccc(C)cc3)no2)ccc1=O	i
O=C(NCc1cccs1)Nc1ccc2c(c1)CCCN2C(=O)C1CC1	i
COC(=O)c1ccc(NC(=O)C2CCCN(c3ccc(-c4ccc(Cl)cc4)nn3)C2)cc1 (centres undefined)	i
COc1ccccc1N1CCN(c2nnc(SCC(=O)Nc3nc(C)cs3)s2)CC1	i
O=C(c1cn(-c2cc(N3CCSCC3)ncn2)cn1)N1CCc2ccccc2C1	i
CN(C)S(=O)(=O)c1ccc(C(=O)NCC(C)(O)CCc2ccccc2)cc1 (centres undefined)	i
COc1cc(C(=O)Nc2sc3c(c2C(N)=O)CCC(C)C3)cc(OC)c1OC (centres undefined)	i
COc1ccc(NS(=O)(=O)Cc2ccc(C(F)(F)F)cc2)cc1N1CCCC1=O	i
CCN(CC)CCN1C(=O)C(=O)C(=C(O)c2c(C)[nH]c(C(=O)OC)c2C)C1c1ccco1 (centres undefined)	i
O=C(NCc1ccc(F)cc1)C(=O)NCC1(CO)CC1	i
O=C(CC(c1ccccc1)c1ccccc1)N1CCC2(CC1)OCCS2	i
Nc1nnc(SCC(=O)c2ccc(Cl)s2)s1	i

Among those listed so far, these contain a CF3 group.
SMILES	GIRK2 activ
O=C(NCc1n[nH]c(=O)c2ccccc12)c1cc(C(F)(F)F)cc(C(F)(F)F)c1	i
COC1(CNC(=O)Nc2ccc(C(F)(F)F)cc2)CCSC1 (centres undefined)	i
Cc1ccc2c(-c3ccnc(Nc4cccc(C(F)(F)F)c4)n3)c(-c3ccccc3)nn2n1	i
COc1ccc(NS(=O)(=O)Cc2ccc(C(F)(F)F)cc2)cc1N1CCCC1=O	i

Retrieved one by one from the list above, six records:
SMILES	GIRK2 activ
O=C(NCc1ccc(F)cc1)C(=O)NCC1(CO)CC1	i
COc1cc(C(=O)Nc2sc3c(c2C(N)=O)CCC(C)C3)cc(OC)c1OC (centres undefined)	i
Nc1nnc(SCC(=O)c2ccc(Cl)s2)s1	i
COC(=O)c1ccc(NC(=O)C2CCCN(c3ccc(-c4ccc(Cl)cc4)nn3)C2)cc1 (centres undefined)	i
COc1ccc(NS(=O)(=O)Cc2ccc(C(F)(F)F)cc2)cc1N1CCCC1=O	i
COc1ccccc1N1CCN(c2nnc(SCC(=O)Nc3nc(C)cs3)s2)CC1	i

(cont.)
SMILES	GIRK2 activ
CCCCc1ccc(N=CNO)c(C)c1	i
CCOC(=O)c1c(S(=O)(=O)N2CCN(c3cc(Cl)ccc3C)CC2)n[nH]c1C	i
O=C(NCc1ccc(F)cc1)c1ccc(S(=O)(=O)N(Cc2ccco2)C2CC2)o1	i
O=C(COc1ccc2c(c1)C(=O)CC2)NCc1cccs1	i
CC(C)(C)c1ccccc1OCC(=O)Nc1ccc2c(c1)OCCO2	i
Cc1ccc(C)c(N2CCN(S(=O)(=O)CC34CCC(CC3=O)C4(C)C)CC2)c1 (centres undefined)	i
CC1CN(C(=O)c2ccc(COc3ccccc3Cl)o2)CC(C)O1 (centres undefined)	i
O=C(NCc1cnn2ccccc12)C1c2ccccc2Oc2ccccc21	i
CCOC(=O)C1CCN(c2c(C#N)cnc3ccc(OC)cc23)CC1	i
CC(=O)Nc1ccc(NC(=O)c2cc(=O)c(OCc3ccc(F)cc3)cn2C)cc1	i
O=C(NCc1cccs1)C(=O)NCC(O)c1ccsc1 (centres undefined)	i
COc1ccccc1N1CCN(c2nnc(SCC(=O)Nc3cc(C)on3)s2)CC1	i
Cc1nccn1CCNC(=O)c1cc2n(n1)CCCO2	i
CCOC(=O)c1ccc(NC(=O)COc2cccc3c2CCN(Cc2ccc(Cl)cc2)C3=O)cc1	i
COC(=O)C1=C(C)NC(=S)NC1c1ccc(O)cc1 (centres undefined)	i
O=C(Nc1ccc(Cn2cnc(C(=O)Nc3cccc(F)c3)c2)cc1)c1cccc(F)c1	i
COC1=CC(=O)CC(C)C12Oc1cc(OC)cc(OC)c1C2=O (centres undefined)	i
C=CCC1=C[C@]2(OC)[C@H](C)[C@@H](c3ccc(OC)c(OC)c3)O[C@]2(OC)CC1=O	i
COc1ccc(Cl)cc1NC(=O)CSc1nc(C)ccc1C#N	i
Cc1nc(C(=O)NCCNc2cc(-n3cnc(C)c3C)ncn2)cc(-n2cccn2)n1	i
Cc1cc(C(=O)N2CCN(c3nc4ccc([N+](=O)[O-])cc4s3)CC2)c(C)o1	i
COc1ccc(C2CC3C4NN=C(CCC(=O)NCc5ccc6c(c5)OCO6)N4C=CN3N2)cc1 (centres undefined)	i
O=C(CC1CCCC1)NCC1CCS(=O)(=O)C1 (centres undefined)	i
COc1cccc(-c2cc(C(=O)N3CCN(C(=O)c4ccco4)CC3)n(C)n2)c1	i
CN(C)CCCN1C(=O)C(O)=C(C(=O)c2cc3ccccc3o2)C1c1ccccn1 (centres undefined)	i
Cc1cc(C)n(-c2cc(NC(=O)CSc3nnnn3C)ncn2)n1	i
CCOC(=O)N1CCN(C(=O)c2coc(NC(=O)c3cnccn3)n2)CC1	i
O=C(Nc1nc2c(s1)CN(S(=O)(=O)Cc1cccc(F)c1)CC2)c1ccco1	i
COC(=O)CCn1c(=O)c2c(nc3n(-c4ccc(F)cc4)c(C)cn23)n(C)c1=O	i
COc1ccc(-c2cnc(SCC(N)=O)n2-c2ccc(OC(F)(F)F)cc2)cc1	i
NS(=O)(=O)c1cccc(-c2ccc3c(NC(=O)C4CC4)n[nH]c3c2)c1	i
Cc1ccc2nc(C3CN(S(=O)(=O)c4cccc(Cl)c4)C3)[nH]c2c1	i
COc1cc(NC(=O)Nc2cnc(-n3ccnc3)nc2)cc(OC)c1	i
Cc1ccc(S(=O)(=O)c2c(C)cc(C)n(CC(=O)Nc3ccc(Br)cc3)c2=O)cc1	i
CC(C)NC(=O)Cn1c(=O)c2oc3ccccc3c2n(Cc2ccc(Cl)cc2)c1=O	i
CC(=O)Nc1ccc(C(C)=O)c(O)c1	i
Cn1cc(C2=C(c3cn(CCCCO)c4ccccc34)C(=O)NC2=O)c2ccccc21	i
CC(C)N(CC#CCNC(=O)c1ccccc1Cl)C(C)C	i
CCCCNC(=O)c1ccc(-n2ccnc2SCC(=O)Nc2ccc(F)cc2Cl)cc1	i
COc1cccc2cc(C(=O)NCCCN3CCOCC3)oc12	i
COC(=O)c1ccc(Cn2nc(C3CCN(S(C)(=O)=O)CC3)n(C)c2=O)cc1	i
COC(=O)c1ccccc1NC(=O)Cn1c(N2CCOCC2)nc(C)cc1=O	i
COc1cccc2c(SCC(=O)NCC3CCCO3)nccc12 (centres undefined)	i
CCOC(=O)c1cccc(NC(=O)Cn2cccc(-c3nc(-c4ccc(Cl)cc4)no3)c2=O)c1	i
COc1cccc(NC(=O)NCCC(O)c2cc(C)oc2C)c1OC (centres undefined)	i
COC(=O)Nc1nc2c(s1)CN(C(=O)NC(c1ccccc1)c1ccccc1)CC2	i
COc1ccc(CCNC(=O)c2cn(C)nn2)cc1	i
O=S(=O)(/C=C/c1ccccc1)N1CCC2(CC1)OCCCO2	i
O=C(COc1ccccc1)N1CCN(c2cc(Nc3ccccn3)ncn2)CC1	i
Cc1ccc2c(c1)OCC(=O)N2Cc1nc(-c2cccc(C(F)(F)F)c2)no1	i
More records follow.
SMILES	GIRK2 activ
COc1ccc(-n2nncc2CN2CCN(Cc3c(F)cccc3Cl)CC2)cc1F	i
O=C(Cn1cnc2ccccc21)N1CCC(c2nnc(C3CC3)o2)CC1	i
CCCCc1cnc2c(c1SCC(=O)Nc1cccc(OC)c1)c(=O)n(C)c(=O)n2C	i
O=C(COc1ccc(Cl)cc1)N1CCC(Cn2ccnc2-c2ccccc2)CC1	i
CCNC(=O)C(=O)NCC1OCCCN1S(=O)(=O)c1ccc(OC)c(OC)c1 (centres undefined)	i
O=C(O)c1ccc(-c2ccsc2)cc1	i
CC(=O)Nc1ccc(C)c(N2CCCC2=O)c1	i
CC1(C)[C@H]2CCC3=C[C@@](C)([C@@H](O)CO)CC[C@H]3[C@]2(C)CC[C@H]1O[C@@H]1O[C@H](CO)[C@@H](O)[C@H](O)[C@H]1O	i
O=C(/C=C/c1ccco1)NCC1(c2ccc(F)cc2)CCOCC1	i
Cc1cccc(N2CCN(C(=O)Cc3csc(Nc4ncccn4)n3)CC2)c1	i

Molecules listed so far that have bromine (2):
SMILES	GIRK2 activ
O=C(NCCC1CCCCN1S(=O)(=O)c1cccs1)c1ccc(Br)o1 (centres undefined)	i
Cc1ccc(S(=O)(=O)c2c(C)cc(C)n(CC(=O)Nc3ccc(Br)cc3)c2=O)cc1	i

(more compounds)
SMILES	GIRK2 activ
OC(CN1CCN(Cc2cccnc2)CC1)c1cccs1 (centres undefined)	i
Cc1cn2c3c(=O)n(Cc4ccccc4Cl)c(=O)n(C)c3nc2n1CCN(C)C	i
O=C(c1cccc(-n2cnnn2)c1)N1CCN(c2ccc(-n3ccnc3)nn2)CC1	i
OC(COc1ccc(Br)cc1)CSc1ccccn1 (centres undefined)	i
Cc1nnc(CNC(=O)c2cc(-c3ccccc3)nn2C)o1	i
C=C(C)Cn1c(=O)c2c(nc3n(-c4ccccc4N)c(C)cn23)n(C)c1=O	i
N#Cc1ccc(C(=O)N2CC(c3nc(-c4ncccn4)no3)C2)cc1	i
Cn1nc(-c2ccccc2)cc1C(=O)N1CCC(C(=O)NCC(F)(F)F)CC1	i
COc1ccc2cccc(NC(=O)c3ccsc3)c2n1	i
CC(C)CCSc1nc2c(c(=O)[nH]c(=O)n2C)n1CCOc1ccccc1	i
O=S(=O)(c1ccc2c(c1)OCCO2)N1C2CCC1COC2	i
O=C(CCn1nnc2ccccc2c1=O)N1CCN(Cc2ccsc2)CC1	i
CCOc1ccc(-n2nnc(C(=O)Nc3ccccc3OCC)c2C)cc1	i
Cc1ccc(-c2cc3c(=O)n(CC(=O)Nc4ccc5c(c4)OCO5)ccn3n2)cc1	i
CCOc1ccccc1-c1noc(CSc2nc(-c3ccc(OC)cc3)cc(=O)[nH]2)n1	i
CCOC(=O)c1c(NC(=O)CSc2ncnc3nc[nH]c23)sc2c1CCCC2	i
COc1ccc(C)cc1NC(=O)Cn1cnc2c(oc3ccccc32)c1=O	i
O=C1NCCc2c(OCC(=O)N3CCCCC3)cccc21	i
COc1ccc(Cl)cc1NC(=O)N1CCN(c2cc(-n3nc(C)cc3C)nc(C)n2)CC1	i

Assay outcomes as filed in PubChem BioAssay.
